Vif A3G: inhibitors of Vif binding to APOBEC3G peptide, primary screen, biochemical, TR-FRET, GST-Vif 1-94, biotin-A3G peptide, dose response retest (AID 1117319). TR-FRET GST-Vif / biotin-A3G peptide binding; higher % means a stronger effect; test concentration not given here; strong numbers were not always called active. inhibition, %; hits with a dose series show IC50 in µM. actives 0.57% (n = 260,000);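 active = above the screen mean plus three standard deviations and confirmed in dose response; inconclusive = results disagree or hit not tested in dose response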;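 also: Vif residues 1-94 fused to GST binding biotinylated APOBEC3G peptide 110-148; 0% = full assay without inhibitor and 100% = GST in place of GST-Vif; retest series ran down from 100 µM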
T cruzi inh: inhibitors of intracellular T. cruzi growth, primary screen, luminescence, NIH3T3 host cells | inhibition, % (concentration not given with the values) | AID 1885, 2009 | T. cruzi beta-gal in NIH3T3, 90 h | actives 1.4% (n = 300,000);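 active = mean inhibition across valid replicates above about 55%, limit read from the data; inconclusive = mean below that limit but half or more replicates reach it; inactive = mean below it, under half of replicates reach it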;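 also: signal also drops with host cell toxicity which is not excluded here; 0% = plate median of DMSO wells and 100% = zero luminescence signal; higher percent means less beta-gal luminescence so fewer parasites; stock transfer was 50 nL into about 50 µL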
Calb FLC: C. albicans growth inhibition with fluconazole, primary screen, CaCi-2 strain, Alamar Blue fluorescence. C. albicans CaCi-2 (fluconazole-resistant clinical isolate) + fluconazole, 48 h. growth inhibition, % (test concentration not listed). actives 0.57% (n = 300,000). AID 1979, 2009;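 active = most replicates above 75%; inconclusive = exactly half above 75%; inactive = most below 75%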;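 also: all wells also contain fluconazole at 8 µg/ml as a sub-toxic cotreatment; 0% = median of DMSO wells and 100% = median of geldanamycin control wells; wells of about 8 µL received 7.5 nL stock; the first replicate is given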
LANA-H2B inh: blockers of LANA interaction with H2A/H2B – biochemical, FP readout, HTS, primary screen | Protein LANA1 (Human herpesvirus 8 type P (isolate GK18)), Q9QR71 | cell-free LANA-H2A/H2B peptide, fluorescence polarization | inhibition, % (concentration not given with the values) | actives 0.6% (n = 320,000) | AID 2629, 2010; in the data active = inhibition mostly above about 10%, no sharp cut-off; inactive = mostly below about 6.7%;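 also: stock transfer was 7.5 nL into about 10 µL; 0% = median of vehicle wells and 100% = median of positive control wells; one replicate is shown; the record names a cut of 25% in any replicate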
Target sequence (Q9QR71 whole entry, looked up): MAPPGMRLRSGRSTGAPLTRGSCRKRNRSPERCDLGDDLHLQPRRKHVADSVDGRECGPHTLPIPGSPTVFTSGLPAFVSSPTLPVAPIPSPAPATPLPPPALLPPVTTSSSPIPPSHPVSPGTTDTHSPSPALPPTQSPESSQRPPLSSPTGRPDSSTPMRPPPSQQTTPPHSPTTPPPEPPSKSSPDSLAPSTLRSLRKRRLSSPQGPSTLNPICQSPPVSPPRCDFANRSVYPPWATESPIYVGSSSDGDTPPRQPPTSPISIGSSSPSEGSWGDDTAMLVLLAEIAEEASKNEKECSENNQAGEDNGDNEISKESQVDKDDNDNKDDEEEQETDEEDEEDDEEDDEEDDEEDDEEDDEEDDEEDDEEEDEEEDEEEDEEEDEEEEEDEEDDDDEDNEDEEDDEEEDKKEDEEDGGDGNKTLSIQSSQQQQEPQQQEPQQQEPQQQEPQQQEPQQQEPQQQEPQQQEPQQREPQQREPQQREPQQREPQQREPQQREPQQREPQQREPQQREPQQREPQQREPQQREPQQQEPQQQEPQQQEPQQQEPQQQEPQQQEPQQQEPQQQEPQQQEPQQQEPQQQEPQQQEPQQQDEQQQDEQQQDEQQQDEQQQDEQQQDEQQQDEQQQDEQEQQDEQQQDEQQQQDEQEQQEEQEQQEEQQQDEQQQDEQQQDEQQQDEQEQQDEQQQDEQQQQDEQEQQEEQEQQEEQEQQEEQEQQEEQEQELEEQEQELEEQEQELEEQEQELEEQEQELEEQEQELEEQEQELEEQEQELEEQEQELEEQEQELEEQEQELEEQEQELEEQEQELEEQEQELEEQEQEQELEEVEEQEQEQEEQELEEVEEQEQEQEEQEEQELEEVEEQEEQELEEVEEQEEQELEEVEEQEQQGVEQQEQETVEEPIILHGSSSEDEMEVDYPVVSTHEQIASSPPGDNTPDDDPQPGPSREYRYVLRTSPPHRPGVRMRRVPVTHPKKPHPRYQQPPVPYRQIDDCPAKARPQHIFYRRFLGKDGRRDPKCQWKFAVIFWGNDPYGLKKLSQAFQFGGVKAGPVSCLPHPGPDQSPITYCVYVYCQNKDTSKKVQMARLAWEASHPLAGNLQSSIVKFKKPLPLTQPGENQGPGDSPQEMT
Beta cell apopt: inhibitors of cytokine-induced beta cell apoptosis, primary screen, luminescence | INS-1E cytokine-induced death, ATP luminescence, 48 h; percent of positive-control rescue, neutral wells zero | protection from apoptosis, % (concentration not given with the values) | AID 435005, 2010 | actives 0.8% (n = 300,000);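 active = all replicates at 75% or more, or half of them and the mean; inconclusive = half reach 75% but not the mean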;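 also: 0% = cytokine-treated negative control wells and 100% = positive control rescue; higher means more ATP so stronger rescue from cytokine killing; wells of about 40 µL received 100 nL stock; the first replicate is given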
A1 inh: caspase 3/7 activation in MEF A1-2A-BIM cells, primary screen, A1 inhibitor project, cell-based, luminescence, HTS | Caspase-Glo 3/7 luminescence, 3 h; percent of clofoctol response, vehicle zero | caspase activation, % (no concentration beside the values) | actives 0.066% (n = 330,000) | AID 2462, 2010;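 active = over half of replicate activation scores above 10%, or exactly half above 10 with the replicate mean above 10; inconclusive = replicate mean below 10 yet half the replicates above 10; inactive = over half of replicates below 10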;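 also: wells of about 30 µL received 50 nL stock; many hits fall short of the cut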
RanGTP-Impb inh: inhibitors of RanGTP-importin-beta interaction, primary screen, biochemical, FRET, CFP-Ran, YFP-importin-beta, homogeneous. cell-free CFP-Ran/YFP-importin-beta FRET ratio. AID 2216, 2009. inhibition, % (test concentration not listed). actives 1.1% (n = 300,000);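 active = most replicates above 15%; inconclusive = exactly half above 15%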;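 also: 0% = DMSO wells and 100% = Ran loaded with GDP instead of GTP; wells of about 40 µL received 100 nL stock; the first replicate is given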
MLL AF4-AF9 inh: inhibitors of AF4 peptide binding to AF9, primary screen, biochemical, AlphaScreen, biotin-AF4 peptide, FLAG-AF9, single point; Protein AF-9 (Homo sapiens), P42568; inhibition, % at 10 µM; actives 0.47% (n = 350,000); AID 651704, 2012;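 active = every replicate reaching a set inhibition limit, whatever the replicate mean, cut at about 25% in these data; inconclusive = mean inhibition reaches that limit but some replicates miss it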;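 also: 0% = plate neutral control median and 100% = total signal loss; the record names both 10 and 1 µM as test concentration; the first replicate is given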
* = called active by the depositor; ? = inconclusive; / = not tested or not shown; & = joins results of further samples.

SMILES	Vif A3G	T cruzi inh	Calb FLC	LANA-H2B inh	Beta cell apopt	A1 inh	RanGTP-Impb inh	MLL AF4-AF9 inh
Cc1ccc(NC(=O)COc2ccccc2C(=O)NCCc2ccccc2)cc1	/	11	3	-0.3	0	-1.8	0.7	-3.4
COc1ccc(N2CCN(C(=O)Nc3cccc(C(F)(F)F)c3)CC2)cc1	3%	-10	-2	1.8	5	0.3	4.9	/
CCOc1ccc2oc(C(=O)N(Cc3nnc(-c4ccccc4Cl)o3)C3CC3)c(C)c2c1	2%	28	0	-4.3	-1	-0.2	?	-4.1
Cc1cccc(-n2nnnc2SCc2csc(-c3ccccc3)n2)c1	17%	14	10	1.3	4	-0.7	-0.5	/
O=C(CSc1nnc(-c2cnccn2)n1Cc1ccco1)c1ccc2ccccc2c1	5%	5	4	-4.9	-4	0.5	3.0	/
CC(=O)NC1(C(F)(F)F)C(=O)Nc2c1c(=O)[nH]c(=O)n2Cc1ccco1 (stereo not given)	6%	-5	0	-3.3	2	-0.2	?	/
CCCn1cc(SCC(=O)Nc2ccc3c(c2)OCO3)c2ccccc21	2%	18	1	-12	1	0.0	-1.0	5.4
CCN(CC)S(=O)(=O)c1ccc2c(c1)c(=O)c(C(=O)NCc1ccc3c(c1)OCO3)cn2C	-2%	16	11	/	-5	1.0	1.4	/
CCn1c(SCC(=O)Nc2nc(C)cs2)nnc1C(NC(=O)c1ccccc1Cl)C(C)C (stereo not given)	?	3	3	2.4	0	-0.1	2.7	/
CCOC(=O)c1ccc(NC(=O)COc2ccc(S(=O)(=O)N3CCCC3)cc2)cc1	1%	-2	4	6.7	-3	-0.7	1.5	1.7
CC(C(=O)c1ccccc1)[n+]1cccc(C(N)=O)c1 (stereo not given)	-2%	-8	3	2.2	2	-0.6	-0.1	-3.9
O=C1C=C(c2cc3ccccc3s2)C[C@@H](c2ccc(F)cc2)C1	/	/	/	1.2	-1	-0.2	/	0.8
COc1ccc(CCNC(=O)CCCOc2cc(=O)n(C)c3ccccc23)cc1OC	-2%	9	1	2.2	1	0.5	1.7	0.5
O=C(CN1C(=O)NC2(CCc3ccccc32)C1=O)c1ccc(Br)cc1 (stereo not given)	/	2	/	-6.2	2	-0.3	5.5	-0.5
CCOC(=O)c1ccc(NCCOC)c([N+](=O)[O-])c1	11%	-10	12	/	3	0.7	-4.8	3.3
CCOc1ccccc1N1CCN(C(=O)c2ccccc2)CC1	11%	7	3	0.2	-3	0.6	6.9	/
CC1(C(=O)N2CC3(CC(c4cccc([N+](=O)[O-])c4)=NO3)C[C@H]2C(=O)NCC(N)=O)CC1 (stereo not given in full)	-2%	-19	11	-4.7	2	0.9	-2.1	0.9
Cc1cc([N+](=O)[O-])c(N2CCC[C@@H]2C(=O)O)c([N+](=O)[O-])c1	8%	-3	3	0.1	1	-0.1	-1.3	/
COc1ccc(CN(C)CC(=O)Nc2ccccc2C(F)(F)F)cc1	/	-8	34	-0.4	-8	0.4	3.8	-2.1
CC(C)[C@H](NC(=O)c1ccccc1Cl)C(=O)OCc1cc([N+](=O)[O-])cc2c1OCOC2	/	-3	-21	1.9	0	0.2	-1.8	/
COc1ccccc1-n1cc2ccc([N+](=O)[O-])cc2n1	/	8	2	0.3	-5	-1.8	2.4	3.1
O=c1cc(NCc2ccccc2)[nH]c(=O)[nH]1	/	-12	2	-0.2	-5	0.5	3.2	-2.3
CC(C)CN(C(=O)COC(=O)c1cccnc1Cl)c1c(N)n(Cc2ccccc2)c(=O)[nH]c1=O	/	-10	2	0.1	-4	-0.7	-3.9	-1.7
Cc1csc(=O)n1CCC(=O)OCc1nnc(-c2ccccc2)o1	10%	-9	3	-1.9	-1	-0.1	-1.0	9.6
Cc1nc2nc(SCC(=O)NCc3ccco3)nn2c(C)c1Cc1ccccc1	21%	32	-14	-3.7	-8	-0.4	5.7	/
O=C(Nc1ccccc1F)c1ccc(COc2ccc(Cl)cc2Cl)o1	1%	5	-4	-0.2	2	0.7	1.6	/
CSc1nc(N)c(C(=O)NC2CCCCC2)s1	/	-14	2	3.4	/	-0.3	-1.1	0.1
COc1cccc(NC(=O)C2C3C=CC4(O3)C2C(=O)N(C(C)C)C4C(=O)NC2CCCCC2C)c1 (stereo not given)	1%	6	1	4.4	-6	0.3	3.2	/
COC(=O)c1ccc(CSCc2ccc(C(=O)OC)o2)o1	6%	-13	1	-0.5	-7	0.1	0.9	-0.6
O=C1CN(C(=O)NCC(=O)N[C@@H](Cc2ccccc2)C(=O)O)c2ccccc2N1	/	-8	8	-5.5	1	0.2	-2.8	-1.4
c1ccc(C(c2c[nH]c3ccccc23)c2c[nH]c3ccccc23)nc1	9%	18	4	-3.5	4	-0.8	52*	/
O=c1[nH]c(=O)n([C@H]2C[C@H](O)[C@@H](CO)O2)cc1I	/	/	/	1.5	5	0.5	/	-1.4
COc1cc([C@@H]2CC=C(C(=O)O)[C@H](c3ccccc3)N2S(=O)(=O)c2ccc(C)cc2)cc(OC)c1OC	/	/	/	0.1	0	0.1	/	-1.6
CCn1nc(C)c(/C=N/NC(=O)Cn2nccc2C)c1C	?	3	?	8.4	3	0.3	-1.2	/
COc1cc(C)c(Cl)cc1S(=O)(=O)NCCN1CCOCC1	1%	-19	0	0.6	-5	0.2	-1.1	/
Brc1ccc(-n2cccc2/C=N/n2cnnc2)cc1	7%	7	-1	5.4	/	0.0	1.5	/
CN(CCOCCOc1ccc2ccccc2c1)Cc1ccccc1	65%	32	-21	1.0	-3	-0.8	1.7	/
Cc1csc(=O)n1CCC(=O)OCC(=O)Nc1cc(Cl)ccc1[N+](=O)[O-]	13%	5	3	0.6	4	-0.1	3.5	3.4
Cc1cc(=O)oc2cc(OC(C)C(=O)NCCCN3CCCC3=O)c(Cl)cc12 (stereo not given)	/	-9	-12	8.0	-10	0.1	-1.7	2.0
CCOc1cccc(C(=O)NC(=S)Nc2cccnc2)c1	0%	3	-5	3.4	-7	1.5	1.4	/
C=CCn1c(=S)[nH]c2nc3c(cc2c1=O)COC(C)(C)C3	-6%&2%	9	-10	-2.4	-3	0.6	8.1	/
Cc1ccc(NC(=O)CN2C(=O)S/C(=C\c3cccn3-c3cccc(C(=O)O)c3)C2=O)c(C)c1	9%	-8	-9	-3.1	5	-0.5	8.2	/
Cc1cc(C)nc(SCC(=O)Nc2ncccn2)n1	6%	-19	1	0.1	/	0.8	-0.2	-4.4
COc1ccc(Cc2nnc(SCC(=O)c3ccc4c(c3)OCO4)o2)cc1	-5%	3	-10	-1.7	-4	0.1	-1.9	0.2
CCOC(=O)CSc1nc(=O)n2ccccc2n1	10%	1	-2	-1.5	-2	-0.3	?	0.0
O=c1[nH]cnc2c1C(c1ccccc1[N+](=O)[O-])c1c(nc[nH]c1=O)O2	15%	-4	6	-2.9	-2	0.9	-1.4	/
C/C(=N\NC(N)=O)c1ccc(-n2ccnc2)cc1	-4%	5	49	-2.1	0	-0.5	-1.4	-2.6
CCOc1ccc(NC(=O)CN(C)C(=O)CC(NC(=O)c2ccccc2)c2ccccc2)cc1OCC (stereo not given)	-4%	0	-10	3.3	/	0.9	-2.0	3.3
CCOC(=O)CC(=O)c1sc2c(c1N)c(=O)[nH]c(=O)n2-c1ccc(OC)cc1	-2%	0	-1	3.8	-2	2.0	0.6	-3.4
CCOC(=O)C1=C(C)NC(C)=C(C(=O)OCC)C1C(=O)OCC(=O)N1c2ccccc2CC1C (stereo not given)	-1%&2%	9	-11	-0.3	-3	0.3	?	-4.5
CCOC(=O)C1=C(CS(=O)(=O)c2ccccc2)NC(=O)NC1c1cc(OC)c(O)c(OC)c1 (stereo not given)	16%	-11	-3	1.5	-4	0.2	4.7	4.2
COc1ccccc1OCC(=O)N(Cc1nc(-c2ccccc2)no1)C(C)C	/	18	0	-0.1	-8	-0.5	2.8	1.7
Cc1cccc(NC(=S)N(CCCN2CCOCC2)C(C)c2cc3ccccc3o2)c1 (stereo not given)	/	9	-2	3.2	-8	-0.4	-1.5	13
Cc1[nH]c(C)c(S(=O)(=O)NCCc2ccccc2)c1C(=O)N1CCCCC1	/	16	32	3.6	0	2.2	6.2	3.3
O=C1CC(c2ccncc2)c2cc3c(cc2N1)OCO3 (stereo not given)	-1%	/	-13	4.6	-5	0.4	/	/
O=C(CNS(=O)(=O)c1ccc(F)c(Cl)c1)N1CCCCCC1	6%	1	?	-0.9	2	1.3	-0.6	-2.4
O=C(NC1CCCC1)c1cc2c(=O)n3ccccc3nc2s1	-10%	/	/	3.0	7	-0.4	/	0.3
COc1ccc(CCNC(=O)CC(c2ccccc2)c2cccc(C)c2O)cc1OC (stereo not given)	-2%	10	11	5.9	4	0.7	1.8	-6.6
COCCNC(=O)/C(C#N)=C/c1c(F)cccc1Cl	-8%	-13	-2	4.1	-4	0.7	?	-0.6
CN1c2ccccc2-c2nc3ccccc3n2C1c1cccs1 (stereo not given)	-3%	0	15	1.2	-3	0.0	?	-2.5
Continued:
SMILES	Vif A3G	T cruzi inh	Calb FLC	LANA-H2B inh	Beta cell apopt	A1 inh	RanGTP-Impb inh	MLL AF4-AF9 inh
Cn1nnnc1SCSc1nnnn1C	0%	-16	-17	6.0	-3	0.3	2.5	/
COc1ccccc1NC(=O)c1cc(Cl)nc2ccccc12	-6%	1	-7	-2.9	-7	-0.3	-3.2	2.2
Cc1ccc(NC(=O)C2(c3cccs3)CCOCC2)cc1C	3%	3	1	-9.9	1	0.2	2.1	2.6
C[C@@H]1CC[C@@]2(O[C@H](CCO)C[C@@H](O)[C@@H]2O)O1	28%	-11	71	0.4	-4	1.4	-0.6	-2.1
O=C(COC(=O)CCN=C1NS(=O)(=O)c2ccccc21)NNC(=O)c1ccc(Cl)cc1	-8%	/	/	0.8	0	-0.5	/	-0.6
CN(Cc1cccc(F)c1)C(=O)CN1CCN(S(=O)(=O)c2ccc3c(c2)OCCCO3)CC1	9%	/	/	-6.4	3	1.0	/	0.0
CC1CN(C(=O)/C=C/c2ccccc2[N+](=O)[O-])CC(C)O1 (stereo not given)	-10%	0	-13	4.6	-7	0.2	-0.4	0.7
COc1ccc(OC)c(CNc2ncc(-c3cccc([N+](=O)[O-])c3)n2C)c1	-3%	0	4	4.4	-2	0.6	?	9.4
Cc1cc(C)c2c3c(sc2n1)C(c1cccc(F)c1)C(C#N)=C(N)O3 (stereo not given)	2%	72*	0	3.0	24	-0.2	91*	/

2 compounds from above, reduced to LANA-H2B inh, Vif A3G and RanGTP-Impb inh:
canonical_smiles	LANA-H2B inh	Vif A3G	RanGTP-Impb inh
COc1ccccc1NC(=O)c1cc(Cl)nc2ccccc12	-2.9	-6%	-3.2
O=C(COC(=O)CCN=C1NS(=O)(=O)c2ccccc21)NNC(=O)c1ccc(Cl)cc1	0.8	-8%	/
